# Hedgehog inh: Sonic Hedgehog pathway inhibition; inhibition, % (no concentration beside the values); Shh-LIGHT2 Gli-luciferase reporter, 30 h; AID 2313; 22,000 compounds, 2.1% hits;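 active = replicate mean of 65% or more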;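 note: pathway switched on by Shh-conditioned medium diluted 1 in 25 in low serum; 100 nL library stock added to about 40 µL; 0% = median of neutral wells and 100% = positive control level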
# MITF inhib: inhibitors of MITF | AID 2240 | 37,000 compounds, 0.28% hits | TRPM1 promoter luciferase, luminescence, 24 h | inhibition, % (concentration not given with the values);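 active = most replicates at 85% or more, or half of them and the mean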;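 note: human melanocyte line stably carrying TRPM1 promoter luciferase reporter; 0% = vehicle wells and 100% = a positive control; the first replicate is given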
# PD-1 reversal: reversal of PD-1 mediated T-cell inhibition | primary human CD4 T cells, PD-L1 beads, CellTiter-Glo 96 h | activation, % (no concentration beside the values) | 29,000 tested, under 10 active | AID 2316;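 active = replicate mean of 50% or more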;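 note: 0% = median vehicle wells and 100% = positive control; 100 nL library stock added to about 50 µL; numbers are from one replicate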
# YB-1 expression: YB-1 expression inhibition; AID 434959; 30,000 compounds, 0.37% hits; U2OS, qRT-PCR YB-1 vs CDIP delta delta Cp, 16 h; hits give high values; zero = DMSO, each unit about twofold; delta delta Cp (YB-1 minus CDIP) (no concentration beside the values);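 active = delta delta Cp rounded down to an integer at or above 3, about 3 SD of DMSO wells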;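 note: higher means less YB-1 transcript or more CDIP transcript relative to DMSO; stock transfer was 100 nL into about 100 µL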
# Numbers without * were called inactive; . = no result given. Not all compounds are listed. The share of hits here may be higher or lower than overall.
# Value order: Hedgehog inh, MITF inhib, PD-1 reversal, YB-1 expression
C[C@@H]1CN([C@@H](C)CO)C(=O)c2cccc(NC(=O)Nc3ccc4c(c3)OCO4)c2O[C@H]1CN(C)Cc1ccc(Oc2ccccc2)cc1
    -34.8, 23.9, -0.4, -0.883
Cc1ccc(S(=O)(=O)N(C)C[C@@H]2OCCCC[C@@H](C)Oc3ccc(NC(=O)Nc4c(C)noc4C)cc3C(=O)N([C@H](C)CO)C[C@@H]2C)cc1
    -0.5, 0.8, 0.4, 0.0839
COc1ccccc1NC(=O)CCSc1nc(C)cc(C)n1
    ., 2.1, 0.4, .
COc1ccc(S(=O)(=O)Nc2ccc3c(c2)CC(=O)N([C@H](C)CO)C[C@H](C)[C@H](CN(C)S(C)(=O)=O)O3)cc1
    -16.6, -10.3, 0.6, -0.152
COC(=O)c1ccccc1N(C)S(C)(=O)=O
    -6.6, -4.2, 0.7, -0.0978
Cc1noc(C)c1S(=O)(=O)Nc1ccc2c(c1)CC(=O)N([C@H](C)CO)C[C@@H](C)[C@@H](CN(C)Cc1ccc(C(=O)O)cc1)O2
    -4.4, 1.8, 2.9, 0.31
CC(=O)O[C@H]1CC[C@@]2(C)C(C[C@@H](OC(C)=O)[C@@]3(C)C4=CC(=O)O[C@@H](c5ccoc5)[C@]4(C)CCC23)C1(C)C (stereo partly drawn)
    25.1, 11.0, ., 0.0975
COc1ccc(-c2nnc3c4ccccc4c(C)nn23)cc1S(=O)(=O)N1CCOCC1
    ., -30.7, -0.9, .
C[C@H](CO)N1C[C@H](C)[C@H](CN(C)C(=O)Nc2ccc(C(F)(F)F)cc2)Oc2ccc(NC(=O)c3ccncc3)cc2CC1=O
    -8.5, 2.2, ., -0.127
COc1cc(C)c(C(=O)Oc2cc(C)c(C(=O)O)c(O)c2C)c(OC)c1C
    -1.9, 18.9, ., -0.0376
O=C(NC(=S)NCc1cccnc1)c1ccc(-c2cccc(Cl)c2Cl)o1
    ., -36.4, 1.8, .
C[C@@H]1CN([C@@H](C)CO)C(=O)c2cc(NS(=O)(=O)c3ccccc3)ccc2O[C@@H]1CN(C)C(=O)Nc1ccc2c(c1)OCO2
    -18.3, 10.5, 0.6, 0.436
Cc1ccc(S(=O)(=O)N(C)C[C@H]2Oc3c(NC(=O)Nc4ccc(C(F)(F)F)cc4)cccc3C(=O)N([C@H](C)CO)C[C@H]2C)cc1
    -19.1, 3.9, -6.5, 0.842
Cc1noc(C)c1S(=O)(=O)N(C)C[C@@H]1Oc2ccc(NC(=O)Cn3cnnn3)cc2C(=O)N([C@@H](C)CO)C[C@@H]1C
    8.0, 3.1, 0.4, -0.14
O=C(COc1ccc([N+](=O)[O-])cc1)Nc1cccc2nsnc12
    ., 16.0, -2.1, .
COc1ccc(NC(=O)N(C)C[C@H]2Oc3c(NC(=O)C4CCCCC4)cccc3C(=O)N([C@@H](C)CO)C[C@@H]2C)cc1
    25.7, -1.7, -0.3, -0.284
CNC[C@H]1Oc2ccc(NS(=O)(=O)c3cccs3)cc2C(=O)N([C@@H](C)CO)C[C@H]1C
    -3.3, -17.8, 2.4, 0.162
C[C@H](CO)N1C[C@H](C)[C@@H](CN(C)C(=O)Nc2ccc3c(c2)OCO3)Oc2c(NS(C)(=O)=O)cccc2C1=O
    -68.9, -0.7, 0.3, 0.0781
C[C@H](CO)N1C[C@H](C)[C@@H](CN(C)S(C)(=O)=O)Oc2ccc(N(C)C)cc2C1=O
    -24.5, 5.5, 0.8, -0.231
C[C@@H]1CN([C@H](C)CO)C(=O)c2cc(NC(=O)CCN3CCOCC3)ccc2O[C@@H]1CN(C)C(=O)Nc1ccc2c(c1)OCO2
    -4.1, -3.3, 0.6, -0.255
CC1Oc2ccccc2OC1(O)c1ccc(Br)cc1 (stereo not drawn)
    16.9, 17.5, -0.5, -0.389
C[C@H](CO)N1C[C@H](C)[C@H](CN(C)C(=O)NC2CCCCC2)Oc2ccc(NC(=O)Cc3cn(C)c4ccccc34)cc2C1=O
    ., -1.4, 0.1, -0.0892
CNC(=O)COc1ccc(NC(=O)c2ccc(-c3nn(C)c(=O)c4ccccc34)cc2)cc1
    ., -2.7, -0.3, .
Cc1noc(C)c1NC(=O)N(C)C[C@@H]1Oc2c(NC(=O)Nc3ccc(C(F)(F)F)cc3)cccc2C(=O)N([C@@H](C)CO)C[C@H]1C
    -73.4, 3.0, -4.8, -0.572
O=C(c1ccccc1)c1ccc2nc(-c3cccc(NC(=O)C4CCCO4)c3)[nH]c2c1 (stereo not drawn)
    ., -44.7, -0.2, .
COc1ccc(S(=O)(=O)Nc2cccc3c2O[C@H](CN(C)C(=O)Nc2c(C)noc2C)[C@@H](C)CN([C@@H](C)CO)C3=O)cc1
    -35.1, -9.6, ., -0.106
COc1ccc(/C=C/C(=O)O[C@H]2[C@H](O[C@H]3[C@@H]4C=CO[C@@H](O[C@@H]5O[C@H](CO)[C@@H](O)[C@H](O)[C@H]5O)[C@@H]4[C@@]4(CO)O[C@@H]34)O[C@@H](C)[C@H](O)[C@H]2OC(C)=O)cc1
    -22.1, -17.4, 1.6, 10.3*
C[C@H](CO)N1C[C@H](C)[C@H](CN(C)C(=O)Nc2cccc3ccccc23)Oc2ccc(NC(=O)c3ccncc3)cc2CC1=O
    -13.3, 9.7, 0.0, -0.0727
CCn1c(=N)n(CCCOc2ccc(Br)cc2)c2ccccc21
    -24.7, -11.7, -0.1, -0.589
COc1ccccc1-n1nnnc1SCC(=O)Nc1ccccc1SC
    ., 7.1, -0.1, .

# Exported tab-delimited: 4 of the compounds above.
canonical_smiles	Hedgehog inh	MITF inhib	PD-1 reversal	YB-1 expression
COc1ccc(/C=C/C(=O)O[C@H]2[C@H](O[C@H]3[C@@H]4C=CO[C@@H](O[C@@H]5O[C@H](CO)[C@@H](O)[C@H](O)[C@H]5O)[C@@H]4[C@@]4(CO)O[C@@H]34)O[C@@H](C)[C@H](O)[C@H]2OC(C)=O)cc1	-22.1	-17.4	1.6	10.3*
C[C@H](CO)N1C[C@H](C)[C@H](CN(C)C(=O)Nc2cccc3ccccc23)Oc2ccc(NC(=O)c3ccncc3)cc2CC1=O	-13.3	9.7	0.0	-0.0727
CCn1c(=N)n(CCCOc2ccc(Br)cc2)c2ccccc21	-24.7	-11.7	-0.1	-0.589
COc1ccccc1-n1nnnc1SCC(=O)Nc1ccccc1SC	.	7.1	-0.1	.

# More records follow.
# Value order: Hedgehog inh, MITF inhib, PD-1 reversal, YB-1 expression
C[C@@H]1CN([C@@H](C)CO)C(=O)c2cc(NC(=O)Nc3cccc4ccccc34)ccc2O[C@@H]1CN(C)S(=O)(=O)c1ccc(Cl)cc1
    8.5, 14.9, -0.6, 0.0695
C[C@H]1CN([C@@H](C)CO)C(=O)c2cccc(NC(=O)C3CCCCC3)c2O[C@@H]1CN(C)C(=O)Nc1ccc(C(F)(F)F)cc1
    -20.6, 3.2, -0.8, -0.228
O=C(Nc1sc2c(c1C(=O)NCc1ccco1)CCCC2)c1ccc(F)cc1
    ., -9.9, -0.5, .
COc1ccc(S(=O)(=O)N(C)C[C@H]2Oc3ccc(NC(=O)Nc4ccc(F)cc4)cc3C(=O)N([C@H](C)CO)C[C@H]2C)cc1
    5.7, -23.8, 0.4, -0.0723
COc1ccc(S(=O)(=O)Nc2cccc3c2O[C@H](CN(C)Cc2ccccc2)[C@H](C)CN([C@@H](C)CO)C3=O)cc1
    -5.6, 7.2, ., -0.139
C[C@@H]1CN([C@H](C)CO)C(=O)c2cc(NC(=O)Nc3ccc4c(c3)OCO4)ccc2O[C@@H]1CN(C)Cc1ccc(Cl)c(Cl)c1
    -28.0, -3.7, ., 0.0234
COCCCNC(=O)c1cc(-c2ccccc2)nc2c(C)cc(C)cc12
    ., -22.2, -1.8, .
C[C@@H]1CN([C@H](C)CO)C(=O)c2cc(NS(=O)(=O)c3cccs3)ccc2O[C@H]1CN(C)S(=O)(=O)c1cn(C)cn1
    -27.5, -12.2, -0.7, -0.472
c1cnc2cc(Oc3ccc4nccnc4c3)ccc2n1
    -8.5, -53.4, -0.4, -0.0959
CC(CCc1ccccc1)N=c1c([N+](=O)[O-])nn(-c2ccccc2)n1O (stereo not drawn)
    ., 24.4, 1.2, .
CC1(C)Cc2c(sc3ncn4nc(COc5ccc(Cl)cc5)nc4c23)C(C)(C)N1
    33.7, 6.1, -4.3, -0.697
C[C@H]1CN([C@@H](C)CO)C(=O)c2cccc(NC(=O)C3CCOCC3)c2O[C@@H]1CN(C)Cc1ccc(C(=O)Nc2ccccc2N)cc1
    ., 5.4, 2.2, -1.08
C[C@H]1CN([C@@H](C)CO)C(=O)Cc2cc(NC(=O)C3CC3)ccc2O[C@H]1CN(C)S(=O)(=O)c1ccccc1
    -4.0, 9.3, -0.8, -0.00719
COc1ccc(CN(C)C[C@@H]2Oc3ccc(NC(=O)C4CCCCC4)cc3C(=O)N([C@H](C)CO)C[C@H]2C)cc1
    -4.7, -5.0, 0.1, -0.083
Cc1ccc(S(=O)(=O)N(C)C[C@H]2Oc3c(NS(=O)(=O)c4c(C)noc4C)cccc3C(=O)N([C@H](C)CO)C[C@H]2C)cc1
    -23.2, 4.1, -0.9, 0.119
COc1ccc(S(=O)(=O)Nc2cccc3c2O[C@@H](CN(C)C(=O)NC2CCCCC2)[C@H](C)CN([C@H](C)CO)C3=O)cc1
    -36.3, 3.9, 2.0, 0.113
CC(C)NC(=O)N(C)C[C@@H]1Oc2c(NC(=O)C3CC3)cccc2C(=O)N([C@@H](C)CO)C[C@@H]1C
    -34.4, -0.4, 3.5, -0.133
COc1ccc(CN(C)C[C@@H]2Oc3ccc(NC(=O)Cn4cnnn4)cc3C(=O)N([C@@H](C)CO)C[C@@H]2C)cc1
    -28.6, -3.2, 0.4, -0.214
C[C@@H]1CN([C@@H](C)CO)C(=O)c2cc(NC(=O)CCCCCC(=O)Nc3ccccc3N)ccc2O[C@@H]1CN(C)S(=O)(=O)c1ccccc1
    ., 5.0, -1.5, 0.0832
COC(=O)c1ccccc1NC(=O)C(C)NS(=O)(=O)c1ccc(Br)cc1 (stereo not drawn)
    ., 0.3, -0.1, .
CN(C)CCCn1cc(C2=C(c3c[nH]c4ccccc34)C(=O)NC2=O)c2ccccc21
    32.4, -13.5, ., 0.607
Cc1ccc(S(=O)(=O)Nc2ccc3c(c2)C(=O)N([C@H](C)CO)C[C@@H](C)[C@H](CN(C)S(=O)(=O)c2ccc(F)cc2)O3)cc1
    ., -6.7, 0.5, -0.221
Cc1noc(C)c1NC(=O)Nc1ccc2c(c1)C(=O)N([C@H](C)CO)C[C@@H](C)[C@H](CN(C)S(=O)(=O)c1ccc(Cl)cc1)O2
    5.8, -7.3, 0.9, 0.0842
Cc1ccc(S(=O)(=O)N(C)C[C@H]2Oc3c(NC(=O)Nc4ccccc4)cccc3C(=O)N([C@@H](C)CO)C[C@H]2C)cc1
    27.0, 22.2, -1.0, -0.184
COc1ccc(S(=O)(=O)Nc2ccc3c(c2)C(=O)N([C@@H](C)CO)C[C@@H](C)[C@H](CN(C)Cc2ccc4c(c2)OCO4)O3)cc1
    ., 1.1, 1.6, 0.0251
C[C@H]1CN([C@@H](C)CO)C(=O)c2cc(NC(=O)Nc3ccccc3)ccc2O[C@H]1CN(C)Cc1ccc(C(F)(F)F)cc1
    ., 6.8, 0.8, -0.16
Cc1noc(C)c1S(=O)(=O)Nc1ccc2c(c1)C(=O)N([C@@H](C)CO)C[C@@H](C)[C@@H](CN(C)S(=O)(=O)c1cn(C)cn1)O2
    -11.9, 1.4, 1.0, -0.254
COc1cc(NC(=O)Cn2cnc3c2c(=O)n(C)c(=O)n3C)cc(OC)c1OC
    ., 9.2, 0.6, .
C[C@@H]1CCCCO[C@H](CN(C)C(=O)c2ccncc2)[C@@H](C)CN([C@H](C)CO)C(=O)c2cc(N(C)C)ccc2O1
    -18.4, -18.8, 0.4, -0.0253
O=C(Nc1ccccc1C(=O)Nc1ccccc1C(=O)NCc1ccco1)c1ccco1
    ., -21.4, -2.6, .

# Next section:
# Value order: Hedgehog inh, MITF inhib, PD-1 reversal, YB-1 expression
CCN(CC(=O)O)S(=O)(=O)c1ccc(Br)cc1
    ., -9.4, -0.2, .
CC1(C)C2CC[C@]3(C)C(C(=O)C=C4[C@@H]5C[C@@](C)(C(=O)O)CC[C@]5(C)CC[C@]43C)[C@@]2(C)CC[C@@H]1O (stereo partly drawn)
    66.5*, 9.3, ., 0.127
Cc1ccc(-n2c(SCC(=O)Nc3ccc(F)c(F)c3)nnc2-c2cnccn2)cc1
    ., -1.9, 1.8, .
CNC[C@@H]1Oc2c(NC(=O)C3CCCCC3)cccc2C(=O)N([C@H](C)CO)C[C@H]1C
    -1.3, -11.0, 2.9, -0.191
Cc1cc(C)c(NC(=O)CN(c2cccc(Cl)c2C)S(C)(=O)=O)c(C)c1
    ., 12.6, 0.1, .
CC(Sc1nc(-c2ccccc2)c(C#N)c(=O)[nH]1)C(=O)Nc1cccc(Cl)c1 (stereo not drawn)
    ., -8.5, 2.5, .
COc1ccc(-c2csc3ncn(CC(=O)Nc4ccccc4)c(=O)c23)cc1
    ., 1.5, 0.0, .
CN1C(N)=NC(=O)/C1=C/c1cccnc1
    -5.0, 4.8, 0.1, 0.0589
OC(c1cc(C(F)(F)F)nc2c(C(F)(F)F)cccc12)C1CCCCN1 (stereo not drawn)
    12.3, 4.1, -7.4, 0.118

# Screens as filed in PubChem.
